A1 inhib: A1 inhibition; MEF A1-2A-BIM cells, caspase-Glo luminescence, 3 h; percent of clofoctol signal, DMSO as zero; caspase activation, % (test concentration not listed); AID 2241; 21,000 compounds, 0.51% hits;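 active = most replicate scores above 10, or exactly half above 10 with mean activity above 10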;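 note: effector caspase 3 and 7 activity cleaving a DEVD luciferin substrate; 50 nL library stock added to about 30 µL; numbers are from one replicate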
BJeLR viab HTS: BJeLR cell viability reduction; 30,000 compounds, 0.64% hits; BJeLR fibroblasts viability, CellTiterGlo ATP luminescence, 48 h; HRASV12, hTERT and SV40 LT/ST transformed; AID 2275; viability loss activity score, % (no concentration beside the values); in the data active = viability loss activity score above about 50%; about a fifth of its hits are not listed in these tables;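 note: higher score means fewer live cells and less ATP luminescence; stock transfer was 50 or 100 nL into about 30 µL; 0% = vehicle wells and 100% = a reference killing control; one replicate is shown; the record names a cut of 85%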
The depositor's hits bear a star; / = no result given; & = joins results of further samples. A portion of the library (hit frequency here may not be typical).

The first 3 records (preview)
Second line of a record: A1 inhib | BJeLR viab HTS
> O=S(=O)(c1ccc(Cl)cc1)N1CCC(n2cccc2)CC1
→ 0.2 | -2.7
> O=c1cc(-c2ccccc2)oc2cc(O)cc(O)c12
→ -3.9 | -5.6
> CCOc1ccc(CCNC(=O)c2cc3c(C)nc4ccccc4c3o2)cc1OCC
→ / | 2.4

This part in full (from the top)
Second line of a record: A1 inhib | BJeLR viab HTS
> O=S(=O)(c1ccc(Cl)cc1)N1CCC(n2cccc2)CC1
→ 0.2 | -2.7
> O=c1cc(-c2ccccc2)oc2cc(O)cc(O)c12
→ -3.9 | -5.6
> CCOc1ccc(CCNC(=O)c2cc3c(C)nc4ccccc4c3o2)cc1OCC
→ / | 2.4
> CC(C)NC(=O)c1ccccc1N
→ -0.2 | 2.2
> COc1ccc(NC(=O)N(C)C[C@@H]2Oc3ccc(NC(=O)NC4CCCCC4)cc3C(=O)N([C@H](C)CO)C[C@H]2C)cc1
→ -0.7 | -0.7
> CC(=O)O[C@H]1[C@H](Oc2cc(O)cc(O)c2C(=O)c2cccc(O)c2)O[C@H](CO)[C@@H](OC(=O)c2ccccc2)[C@@H]1O
→ -1.4 | -1.5
> C[C@H](CO)N1C[C@H](C)[C@H](CN(C)C(=O)NC2CCCCC2)Oc2c(NC(=O)NC3CCCCC3)cccc2C1=O
→ / | 0.3
> c1ccc([C@H]2CN3CCSC3=N2)cc1
→ 0.8 | -4.8
> S=C(NCCc1ccccc1)NCCc1c[nH]c2ccccc12
→ -1.2 | 0.5
> CC(C)C1Cc2c(sc3[nH]c(=S)n(Cc4ccccc4)c(=O)c23)CO1 (stereo not drawn)
→ -0.3 | 4.1
> NCCC(=O)N1c2ccccc2Sc2ccccc21
→ / | -0.3
> C[C@H](CO)N1C[C@H](C)[C@H](CN(C)C)Oc2ccc(NC(=O)C3CC3)cc2C1=O
→ -0.6 | -2.0
> CN(C)C=Nc1nonc1-c1ccccc1
→ -1.6 | -1.1
> CNC(=O)c1cccc2cccc(Br)c12
→ 0.7 | -3.6
> C[C@@H]1CN([C@@H](C)CO)C(=O)c2cccc(NS(=O)(=O)c3ccccc3)c2O[C@@H]1CN(C)C(=O)Nc1ccc(C(F)(F)F)cc1
→ / | -4.1
> COc1cc(O)c(C(=O)/C=C/c2ccc(O)c(OC)c2)c(OC)c1
→ 0.3 | -10
> COc1ccc(NC(=O)N(C)C[C@H]2Oc3ccc(NC(=O)Cc4cn(C)c5ccccc45)cc3C(=O)N([C@@H](C)CO)C[C@H]2C)cc1
→ 1.6 | -1.6
> C[C@H](CO)N1C[C@H](C)[C@@H](CN(C)C(=O)NC2CCCCC2)Oc2ccc(NS(=O)(=O)c3ccccc3)cc2C1=O
→ -0.3 | 3.0
> Cc1ccc(S(=O)(=O)N(C)C[C@@H]2Oc3ccc(NS(=O)(=O)c4cccs4)cc3C(=O)N([C@H](C)CO)C[C@@H]2C)cc1
→ 0.1 | 0.2
> Cc1noc(C)c1NC(=O)N(C)C[C@@H]1Oc2ccc(NS(=O)(=O)c3cccs3)cc2C(=O)N([C@H](C)CO)C[C@H]1C
→ 0.3 | -0.6
> CCc1ccc(OCC(=O)Nc2ncn[nH]2)cc1
→ -4.8 | 2.0
> CC(C)(C)NCC(O)c1cc(O)cc(O)c1 (stereo not drawn)
→ -0.6 | 17
> C[C@H]1CN([C@@H](C)CO)C(=O)c2cc(NC(=O)CCN3CCOCC3)ccc2O[C@H]1CN(C)C(=O)NC1CCCCC1
→ 1.7 | 3.1
> COc1ccc(C(=O)N2CCc3cc(OC)c(OC)cc3C2C)cc1 (stereo not drawn)
→ 1.0 | 17
> O=C(COc1ccccc1O)N1CCCC1
→ -0.9 | 2.2
> O=C(Nc1ccc(OCc2ccccc2)cc1)N1CCN(C(=O)C2COc3ccccc3O2)CC1 (stereo not drawn)
→ -0.8 | 4.3
> COc1ccccc1N1C(=O)C2C(c3ccc(F)cc3)NC(Cc3ccccc3)(C(=O)O)C2C1=O (stereo not drawn)
→ / | 0.6
> CNC[C@H]1Oc2c(NS(=O)(=O)c3cn(C)cn3)cccc2C(=O)N([C@@H](C)CO)C[C@@H]1C
→ / | 2.6
> COc1c(CO)c(O)cc2c1C(=O)c1ccccc1C2=O
→ -0.6 | 3.1
> CC1SC2(CCCCC2)N(c2ccc(Cl)cc2)C1=O (stereo not drawn)
→ / | 0.9
> CC(C)NC(=O)Nc1ccc2c(c1)C(=O)N([C@H](C)CO)C[C@@H](C)[C@@H](CN(C)S(=O)(=O)c1ccc(F)cc1)O2
→ -0.1 | 4.4
> C[C@@H]1CN([C@@H](C)CO)C(=O)c2cccc(NS(=O)(=O)c3cn(C)cn3)c2O[C@H]1CN(C)Cc1ccc2c(c1)OCO2
→ / | -1.9
> C[C@@H]1CN([C@H](C)CO)C(=O)c2cccc(NC(=O)Nc3ccccc3)c2O[C@@H]1CN(C)S(=O)(=O)c1ccc(F)cc1
→ / | -6.8
> CCc1ccc(Oc2c(C(F)(F)F)oc3c(CN4CCCCC4)c(O)ccc3c2=O)cc1
→ -0.5 | 0.0
> O=C(O)C1Cc2ccccc2C1
→ -0.1 | 4.9
> C[C@@H]1CN([C@@H](C)CO)C(=O)c2cccc(NC(=O)Nc3ccc4c(c3)OCO4)c2O[C@H]1CN(C)S(=O)(=O)c1cn(C)cn1
→ / | -5.2
> C[C@H](CO)N1C[C@H](C)[C@H](CN(C)S(=O)(=O)c2cccs2)Oc2ccc(NS(=O)(=O)c3cccs3)cc2C1=O
→ 0.2 | 1.4
> C[C@@H]1CN([C@@H](C)CO)C(=O)c2cccc(NC(=O)NC3CCCCC3)c2O[C@H]1CN(C)S(C)(=O)=O
→ / | 1.1
> COc1ccc(NC(=O)N(C)C[C@H]2Oc3c(NS(=O)(=O)c4cccs4)cccc3C(=O)N([C@H](C)CO)C[C@@H]2C)cc1
→ / | -0.2
> C[C@@H]1CN([C@H](C)CO)C(=O)c2cccc(NC(=O)NC3CCCCC3)c2O[C@H]1CN(C)Cc1ccc(-c2ccccc2)cc1
→ / | -0.7
> C[C@H]1CN([C@@H](C)CO)C(=O)c2cc(NC(=O)Nc3cccc4ccccc34)ccc2O[C@H]1CN(C)S(=O)(=O)c1ccc(F)cc1
→ -0.3 | 1.7
> COc1ccccc1/C=C1\SC(=O)N(CC(=O)N2CCOCC2)C1=O
→ 0.1 | 1.2
> COc1ccc(Cl)cc1NC(=O)c1cc2c(Cl)nc3ccc(C)cc3c2s1
→ / | -1.6
> C[C@H]1CN([C@@H](C)CO)C(=O)c2cc(NC(=O)Nc3ccc4c(c3)OCO4)ccc2O[C@@H]1CN(C)Cc1ccc(-c2ccccc2)cc1
→ 1.4 | 0.6
> C[C@@H]1CN([C@@H](C)CO)C(=O)c2cccc(NS(C)(=O)=O)c2O[C@@H]1CN(C)S(=O)(=O)c1ccc(F)cc1
→ / | 0.1
> O=C(c1ccc(F)cc1)N1CCCCC(Sc2nnc3sc4ccccc4n23)C1=O (stereo not drawn)
→ 0.3 | -2.1
> Cc1noc(C)c1NC(=O)Nc1ccc2c(c1)C(=O)N([C@@H](C)CO)C[C@@H](C)[C@H](CN(C)S(=O)(=O)c1ccccc1)O2
→ 0.3 | 1.4
> COc1ccc(-c2nn(C)c3ccccc23)cc1
→ -6.8 | 23
> Cc1c(C(=O)Cc2c(O)c3ccccc3oc2=O)sc2nc(C(F)(F)F)nn12
→ -0.3 | -0.1
> COC(=O)Nc1c(C)cc(C)cc1C
→ 1.5 | -3.2
> CC(C)C(=O)Nc1ccccc1C(F)(F)F
→ 0.2 | -3.1
> CC(C)CCNC(=O)C1CCN(c2nc3ccccc3o2)CC1
→ 0.0 | 3.3
> CC1CC(C)CN(S(=O)(=O)c2ccc(F)c(C(=O)NCc3ccccc3)c2)C1 (stereo not drawn)
→ 0.6 | -0.9
> COC(=O)Cn1c(Cl)nc2c1c(=O)n(C)c(=O)n2C
→ 0.0 | 0.7
> C[C@H](CO)N1C[C@H](C)[C@H](CN(C)Cc2ccc(Oc3ccccc3)cc2)Oc2c(NC(=O)Nc3cccc4ccccc34)cccc2C1=O
→ / | 1.4
> Cc1ccc(C(=O)Oc2cc(C)cc(OC(=O)c3ccc(C)cc3)c2)cc1
→ 1.0 | 1.3
> FC(F)(F)c1cccc(NC(=S)N2CCCC2)c1
→ 0.5 | 2.1
> O=C(c1c(O)c2ccc(Cl)cc2[nH]c1=O)C1CC1
→ 0.0 | -2.4
> C[C@H](CO)N1C[C@H](C)[C@H](CN(C)S(=O)(=O)c2ccc(Cl)cc2)Oc2ccc(NC(=O)Cn3cnnn3)cc2C1=O
→ 0.2 | 0.4
> COc1ccc(CC(CC(=O)O)C(=O)Nc2ccccc2)cc1 (stereo not drawn)
→ 0.5 | 3.6

3 compounds out of the list above, ordered by the number in A1 inhib, smallest number first.
Structure,A1 inhib
COc1ccc(-c2nn(C)c3ccccc23)cc1,-6.8
CC(C)C(=O)Nc1ccccc1C(F)(F)F,0.2
CC1CC(C)CN(S(=O)(=O)c2ccc(F)c(C(=O)NCc3ccccc3)c2)C1 (stereo not drawn),0.6

The list continues:
| canonical_smiles | A1 inhib | BJeLR viab HTS |
| --- | --- | --- |
| CC(=O)Nc1cc(C(=O)N2CCc3ccccc3C2)ccc1Sc1ccc(Cl)cc1 | -0.4 | -2.4 |
| S=C1NCN(C(Cc2ccccc2)c2ccccc2)CN1 (stereo not drawn) | 0.0 | -3.0 |
| C[C@H](CO)N1C[C@H](C)[C@@H](CN(C)Cc2ccc(-c3ccccc3)cc2)Oc2c(NC(=O)Nc3ccc(C(F)(F)F)cc3)cccc2C1=O | / | 3.9 |
| COc1ccc(/C=C2/Oc3ccccc3N(CC(=O)O)C2=O)cc1 | -0.2 | 0.2 |
| C=CCNC(=O)c1ccc2c(c1)N(Cc1ccccc1)C(=O)CS2 | -0.3 | 1.4 |
| Cn1c(CN2CCOCC2)c(C#N)c2ccccc21 | -1.1 | 4.2 |
| CC1(C)Cc2c(C#N)c(NCC3CCCO3)nc(-c3ccccc3)c2CO1 (stereo not drawn) | -1.7 | -3.6 |
| CC1(C)CC2(CC(C)(C(=O)CSc3nc4ccccc4s3)OC2=O)C(=O)O1 (stereo not drawn) | / | -2.9 |
| C[C@@H]1CN([C@@H](C)CO)C(=O)c2cc(NC(=O)Cc3ccccc3)ccc2O[C@@H]1CN(C)S(=O)(=O)c1cccs1 | 0.0 | -2.8 |
| C[C@H]1CN([C@@H](C)CO)C(=O)c2cc(NS(=O)(=O)c3ccc(Cl)cc3)ccc2O[C@H]1CN(C)S(=O)(=O)c1ccccc1 | 0.7 | -0.1 |
| COc1cccc2c1C(c1ccc3c(c1O)C(=O)CC(C)C3O)OC2=O (stereo not drawn) | 0.9 | 1.2 |
| C[C@H]1CN([C@@H](C)CO)C(=O)c2cccc(N(C)C)c2O[C@H]1CN(C)Cc1ccc(C(F)(F)F)cc1 | / | -0.9 |
| C[C@@H]1CN([C@H](C)CO)C(=O)c2cccc(NC(=O)Nc3ccccc3)c2O[C@H]1CN(C)C(=O)Nc1ccc(C(F)(F)F)cc1 | / | 0.6 |
| Nc1nc2ccc(OC(F)(F)F)cc2s1 | -3.1&-2.1 | -5.2&-5.9 |
| COc1ccc(NC(=O)Nc2cccc3c2O[C@@H](CN(C)S(=O)(=O)c2ccc(C)cc2)[C@H](C)CN([C@@H](C)CO)C3=O)cc1 | / | 1.5 |
| C[C@@H]1CN([C@@H](C)CO)C(=O)c2cc(NS(=O)(=O)c3cn(C)cn3)ccc2O[C@@H]1CN(C)S(=O)(=O)c1cccs1 | 0.2 | 0.7 |
| CCCCn1c2ccccc2c2nc3ccccc3nc21 | -1.1 | 0.7 |
| C[C@@H]1CN([C@@H](C)CO)C(=O)c2cc(NC(=O)CCN3CCOCC3)ccc2O[C@H]1CN(C)Cc1ccc(C(=O)O)cc1 | 0.3 | 6.0 |
| Cc1ccc(S(=O)(=O)N(C)C[C@H]2Oc3ccc(NC(=O)C4CCCCC4)cc3C(=O)N([C@@H](C)CO)C[C@H]2C)cc1 | 1.9 | 7.1 |
| COC(=O)c1c(C)nn(C(=O)c2ccc(C)cc2)c1-c1cc(C)on1 | 0.3 | -5.7 |
| Cc1noc(C)c1S(=O)(=O)Nc1ccc2c(c1)C(=O)N([C@H](C)CO)C[C@@H](C)[C@@H](CN(C)Cc1ccc(Oc3ccccc3)cc1)O2 | -0.4 | -0.5 |
| O=S(=O)(c1ccccc1)c1ccc(S(=O)(=O)N2CCCCC2)s1 | 0.9 | 4.8 |
| CC1CC(Nc2ccccc2)c2ccccc2N1C(=O)c1ccncc1 (stereo not drawn) | 0.6 | 2.7 |
| C[C@H](CO)N1C[C@H](C)[C@H](CN(C)CC2CCCCC2)Oc2ccc(NC(=O)CCN3CCOCC3)cc2C1=O | 0.6 | 3.6 |
| CCN(CC)c1ccc(CNc2ccc3c(c2)ncn3C(C)(C)C)cc1 | / | 1.9 |
| Cc1c(N=C2SCC(=O)N2/N=C\c2ccc(Br)cc2)c(=O)n(-c2ccccc2)n1C | -0.4 | -0.8 |
| C[C@H](CO)N1C[C@H](C)[C@@H](CN(C)Cc2ccc(Oc3ccccc3)cc2)Oc2c(NC(=O)C3CCCCC3)cccc2C1=O | / | 0.7 |
| C[C@H]1CN([C@@H](C)CO)C(=O)c2cccc(NC(=O)Nc3ccc(F)cc3)c2O[C@@H]1CN(C)C(=O)Nc1ccc(C(F)(F)F)cc1 | / | -3.1 |
| COc1cc2[nH]c(=S)n(CCc3ccccc3)c(=O)c2cc1OC | 2.5 | 3.8 |
| CC1CCN(C(=O)c2ccc3c(SCC(=O)O)c4c(nc3c2)CCCC4)CC1 | / | 5.2 |
| C[C@H](CO)N1C[C@H](C)[C@H](CN(C)S(=O)(=O)c2cn(C)cn2)Oc2ccc(NC(=O)CCN3CCOCC3)cc2C1=O | -0.3 | -0.2 |

Assay outcomes from PubChem BioAssay.
